From PubChem BioAssay
BJeLR viab HTS: compounds reducing viability of BJeLR cells | 0.64% of 30,000 active | BJeLR fibroblasts viability, CellTiterGlo ATP luminescence, 48 h; HRASV12, hTERT and SV40 LT/ST transformed | viability loss activity score, % (test concentration not listed); in the data active = viability loss activity score above about 50%; about a fifth of its hits are not listed in these tables;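 note: higher score means fewer live cells and less ATP luminescence; stock transfer was 50 or 100 nL into about 30 µL; 0% = vehicle wells and 100% = a reference killing control; one replicate is shown; the record names a cut of 85%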
A1 inh: blocks A1 activity. MEF A1-2A-BIM cells, caspase-Glo luminescence, 3 h; percent of clofoctol signal, DMSO as zero. caspase activation, % (test concentration not listed). 0.51% of 21,000 active. AID 2241;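 active = most replicate scores above 10, or exactly half above 10 with mean activity above 10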;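 note: effector caspase 3 and 7 activity cleaving a DEVD luciferin substrate; 50 nL library stock added to about 30 µL; numbers are from one replicate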
* marks the source's active call; other numbers are inactive results; . = no result given. These rows are one share of the data, so the mix of outcomes need not match the whole.

item	Structure	BJeLR viab HTS	A1 inh
1	COc1cccc2sc(NCc3ccccc3)nc12	-1.2	.
2	C[C@H]1CN([C@@H](C)CO)C(=O)c2cc(NC(=O)Nc3ccc(F)cc3)ccc2O[C@@H]1CN(C)C(=O)Nc1ccc2c(c1)OCO2	-10.7	-0.2
3	COc1ccc(/C=C(/NC(=O)c2ccco2)C(=O)N2CCCC2=O)cc1	1.6	-0.4
4	O=C(CCCCC(=O)Nc1c(I)cc(I)c(C(=O)O)c1I)Nc1c(I)cc(I)c(C(=O)O)c1I	2.4	-0.2
5	Cc1ccccc1S(=O)Cc1ccc(C(=O)N2CCCC2)o1 (stereo not given)	-1.5	.
6	Cc1ccc(NC(=O)c2cnc3ccc(S(=O)(=O)N(C)C4CCCCC4)cc3c2Cl)cc1F	1.3	1.3
7	C[C@H](CO)N1C[C@H](C)[C@H](CN(C)C(=O)Nc2ccc(C(F)(F)F)cc2)Oc2ccc(NC(=O)CCN3CCOCC3)cc2C1=O	-7.4	0.9
8	C=C[C@](C)(O)CC/C=C(\C)C(=O)O[C@@H]1[C@@H]2O[C@]2(C)[C@H]2[C@H](O[C@@H]3O[C@H](CO)[C@@H](O)[C@H](O)[C@H]3O)OC=C[C@@]12OC(=O)/C(C)=C/CC[C@](C)(O)C=C	0.4	-0.7
9	Cc1noc(C)c1S(=O)(=O)Nc1ccc2c(c1)C(=O)N([C@@H](C)CO)C[C@@H](C)[C@@H](CN(C)CC1CCCCC1)O2	-4.1	2.5
10	C[C@H]1CN([C@@H](C)CO)C(=O)c2cccc(NC(=O)c3ccncc3)c2O[C@@H]1CN(C)S(=O)(=O)c1ccc(Cl)cc1	3.1	.
11	C[C@@H]1CN([C@H](C)CO)C(=O)c2cc(NC(=O)Nc3ccc4c(c3)OCO4)ccc2O[C@H]1CN(C)C(=O)Nc1ccc(C(F)(F)F)cc1	-0.2	0.1
12	N#Cc1c(F)cccc1NCc1cccs1	-6.6	-0.2
13	C[C@H](CO)N1C[C@H](C)[C@@H](CN(C)Cc2ccc3c(c2)OCO3)Oc2ccc(NC(=O)c3ccncc3)cc2C1=O	1.1	-0.6
14	O=C1CSc2cc(S(=O)(=O)N3CCN(c4ccccc4)CC3)ccc2N1	-5.4	0.6
15	Cc1cccc(NC(=O)CNC(=O)OCc2ccccc2)c1	2.9	0.2
16	C[C@H]1CN([C@@H](C)CO)C(=O)c2cc(NS(C)(=O)=O)ccc2O[C@H]1CN(C)Cc1ccc(Oc2ccccc2)cc1	-1.8	0.7
17	Cc1noc(C)c1NC(=O)N(C)C[C@H]1Oc2ccc(NC(=O)Cc3ccccc3)cc2C(=O)N([C@@H](C)CO)C[C@@H]1C	3.7	-0.3
18	CC(C)N(Cc1ccccc1)S(=O)(=O)N(C)C	3.3	1.0
19	Cc1oc(S(=O)(=O)N2CCCC2)cc1C(=O)NCCN1CCNC1=O	0.0	0.4
20	CCOC(=O)c1c(O)c(O)c(C(=O)OCC)n1-c1ccc(OC)cc1	-2.4	-0.5
21	OCC1CCCN1CC1CC1 (stereo not given)	1.7	0.6
22	O=C(COc1ccccc1)Nc1ccc(I)cc1	-4.1	-1.0
23	C[C@H](CO)N1C[C@H](C)[C@@H](CN(C)Cc2ccccc2)Oc2ccc(NC(=O)NC3CCCCC3)cc2C1=O	-2.0	0.1
24	Cn1nc(C(C)(C)C)cc1C(=O)NN1CCOCC1	-1.5	-0.8
25	CC(C)=CCC/C(C)=C/CC/C(C)=C/Cc1c(C)cc(O)cc1O	-3.5	-0.2
26	CCCCCCCCNC(C)C(O)c1ccc(SC(C)C)cc1 (stereo not given)	0.6	-0.4
27	C[C@@H]1CN([C@H](C)CO)C(=O)c2cc(NC(=O)Cn3cnnn3)ccc2O[C@@H]1CN(C)C(=O)Nc1ccccc1	3.7	0.2
28	C[C@@H]1CN([C@H](C)CO)C(=O)c2cccc(NC(=O)c3nc4ccccc4s3)c2O[C@@H]1CN(C)S(=O)(=O)c1cccs1	2.7	.
29	COc1ccc(S(=O)(=O)N(C)C[C@@H]2Oc3c(NC(=O)Nc4ccc(C(F)(F)F)cc4)cccc3C(=O)N([C@H](C)CO)C[C@@H]2C)cc1	-0.9	.
30	Cc1cccc(Oc2ccc(NC(=O)C3CCC(C)CC3)cc2)c1 (stereo not given)	3.8	0.3
31	COc1ccc(OC)c(NC(=S)NCc2ccc3[nH]c(C)cc3c2)c1	-0.4	.
32	C[C@H](CO)N1C[C@H](C)[C@H](CN(C)CC2CC2)Oc2ccc(NC(=O)CCN3CCOCC3)cc2C1=O	3.3	0.4
33	Cn1c(C(=O)O)c(CC(=O)NCc2cccnc2)c2ccccc21	-3.0	.
34	O=C(c1ccc(Cl)cc1)N1CCc2sccc2C1c1ccc(Cl)cc1 (stereo not given)	5.3	-0.2
35	C[C@H]1CN([C@@H](C)CO)C(=O)c2cccc(NC(=O)C3CCOCC3)c2O[C@H]1CN(C)Cc1ccc(Oc2ccccc2)cc1	-4.1	.
36	CCNc1cc(N)[n+](CC)c2n[nH]c(N)c12	-7.5	0.6
37	Cc1noc(C)c1S(=O)(=O)Nc1cccc2c1O[C@@H](CN(C)Cc1ccc(Oc3ccccc3)cc1)[C@@H](C)CN([C@@H](C)CO)C2=O	-0.7	.
38	COc1ccc(S(=O)(=O)N2Cc3ccccc3CC2C(N)=O)cc1OC (stereo not given)	-5.3	.
39	C[C@@H]1CN([C@H](C)CO)C(=O)c2cc(NC(=O)Nc3cccc4ccccc34)ccc2O[C@H]1CN(C)Cc1ccc(Oc2ccccc2)cc1	0.6	0.2
40	Cc1cccc(N=C2SCC(=O)N2c2cccc(C)c2)c1	8.8	1.4
41	Cc1ccc(S(=O)(=O)N(C)C[C@H]2Oc3c(NS(=O)(=O)c4c(C)noc4C)cccc3C(=O)N([C@@H](C)CO)C[C@H]2C)cc1	6.7	.
42	C[C@]12CCC3C(CC[C@@H]4C[C@H](O)CC[C@]34C)C1CC[C@]2(O)C(=O)CO (stereo not given in full)	-6.0	-0.2
43	Cc1ccc(Nc2ncc(C(=O)N3CCCCCC3)c3ccccc23)cc1Cl	-0.3	.
44	S=C(Nc1ccccc1)Nc1ccc2c(c1)oc1ccccc12	-0.4	.
45	COc1ccc(N=c2scc(C)n2C(=O)c2ccccc2Cl)cc1	1.5	0.5
46	C[C@H](CO)N1C[C@H](C)[C@@H](CN(C)CC2CCCCC2)Oc2c(NC(=O)NC3CCCCC3)cccc2C1=O	0.9	.
47	C[C@@H]1CN([C@@H](C)CO)C(=O)c2cc(NS(=O)(=O)c3ccc(F)cc3)ccc2O[C@H]1CN(C)Cc1ccc(Cl)c(Cl)c1	1.1	0.2
48	CC1(C)CC(=O)C(C=NCc2ccco2)=C(O)C1	0.0	0.2
49	C[C@H]1CN([C@@H](C)CO)C(=O)c2cc(NC(=O)c3ccncc3)ccc2O[C@@H]1CN(C)Cc1ccc(C(=O)Nc2ccccc2N)cc1	3.2	.
50	C[C@@H]1CN([C@H](C)CO)C(=O)c2cccc(NC(=O)c3ccc(-c4nccs4)cc3)c2O[C@H]1CN(C)S(=O)(=O)c1ccccc1	-3.6	.
51	C[C@@H]1CN([C@H](C)CO)C(=O)c2cc(NC(=O)Cn3cnnn3)ccc2O[C@H]1CN(C)C(=O)Nc1ccc2c(c1)OCO2	2.1	-0.4
52	COC(=O)C1=C(C)N=c2s/c(=C/c3ccc(OC)cc3)c(=O)n2C1c1cccs1 (stereo not given)	-2.5	0.6
53	COc1ccc(-c2nc(C)c(CCNS(=O)(=O)c3ccc4c(c3)OCCO4)s2)cc1OC	-4.2	0.3
54	COc1ccc(NC(=O)N(C)C[C@@H]2Oc3c(NC(=O)c4ccc(-c5nccs5)cc4)cccc3C(=O)N([C@@H](C)CO)C[C@@H]2C)cc1	-1.8	.
55	COc1ccc(NC(=O)Nc2cccc3c2O[C@@H](CN(C)S(=O)(=O)c2ccc(OC)cc2)[C@H](C)CN([C@@H](C)CO)C3=O)cc1	1.9	.
56	Cc1ccc(C2=NN(CCC(=O)N3CCC(C(N)=O)CC3)C(=O)CC2)cc1	6.5	0.6

Continued:
item	Structure	BJeLR viab HTS	A1 inh
57	CC(C)Cn1c(=O)c2cc3c(=O)n(CC(C)C)c(=O)c3c(C(=O)c3ccc(Cl)cc3)c2c1=O	3.1	-0.1
58	COc1ccc(S(=O)(=O)N(C)C[C@H]2Oc3ccc(NS(=O)(=O)c4cn(C)cn4)cc3C(=O)N([C@@H](C)CO)C[C@@H]2C)cc1	1.9	-0.2
59	c1ccc(Oc2cccc(Oc3ccccc3)c2)cc1	-0.4	0.0
60	C[C@H](CO)N1C[C@H](C)[C@@H](CN(C)C(=O)Nc2ccc3c(c2)OCO3)Oc2ccc(NC(=O)CCCCCC(=O)Nc3ccccc3N)cc2C1=O	-1.9	.
61	O=C(Cc1ccccc1)NC1CCN(C(=O)c2cccs2)CC1	6.3	1.4
62	C[C@@H]1CN([C@@H](C)CO)C(=O)c2cc(NC(=O)Nc3cccc4ccccc34)ccc2O[C@@H]1CN(C)Cc1ccc(Oc2ccccc2)cc1	0.2	0.6
63	C[C@H]1CN([C@@H](C)CO)C(=O)c2cccc(NC(=O)Nc3ccc4c(c3)OCO4)c2O[C@@H]1CN(C)C(=O)NC1CCCCC1	3.4	.
64	CN(C)CCc1cc2c(c3c1ccc1ccccc13)OCO2	-3.9	3.0
65	C[C@@H]1CN([C@H](C)CO)C(=O)c2cc(NS(=O)(=O)c3cccs3)ccc2O[C@@H]1CN(C)Cc1ccc2c(c1)OCO2	-2.0	0.5
66	O=C(NCCCN1CCN(Cc2c(F)cccc2Cl)CC1)c1cccc(C(F)(F)F)c1	0.0	.
67	CCc1ccc(Nc2ncnc3sc(C)cc23)cc1	-6.7	-2.0
68	C[C@H]1CN([C@@H](C)CO)C(=O)c2cccc(NC(=O)NC3CCCCC3)c2O[C@H]1CN(C)C(=O)Nc1cccc2ccccc12	-3.4	.
69	C[C@@H]1CN([C@@H](C)CO)C(=O)c2cc(NC(=O)c3ccncc3)ccc2O[C@@H]1CN(C)C(=O)Nc1ccccc1	-2.3	-0.2
70	C[C@@H]1CN([C@@H](C)CO)C(=O)c2cccc(NC(=O)C3CCCCC3)c2O[C@H]1CN(C)S(=O)(=O)c1ccccc1	-1.8	.
71	CCc1cc2c(=O)c(-c3nc4ccccc4[nH]3)coc2c(CN2CCCC(C)C2)c1O (stereo not given)	-4.3	.
72	COC(=O)CC1=C(C)C(=O)CC2C(C)(C)CCC[C@]12C (stereo not given in full)	2.8	0.4

The last two records of the section above are carried over, then new ones follow.
item	Structure	BJeLR viab HTS	A1 inh
71	CCc1cc2c(=O)c(-c3nc4ccccc4[nH]3)coc2c(CN2CCCC(C)C2)c1O (stereo not given)	-4.3	.
72	COC(=O)CC1=C(C)C(=O)CC2C(C)(C)CCC[C@]12C (stereo not given in full)	2.8	0.4
73	COc1ccc(/C=C2\CCc3ccccc3C2=O)cc1COc1ccc(F)cc1	-1.7	0.6
74	Cc1noc(C)c1S(=O)(=O)Nc1ccc2c(c1)C(=O)N([C@H](C)CO)C[C@H](C)[C@@H](CN(C)S(=O)(=O)c1ccccc1)O2	2.2	0.1
75	CC1=NN(c2ccccc2)C(=O)C1C(=O)c1ccccc1Br (stereo not given)	6.1	0.2
76	Cc1cc(C(F)(F)F)nc2sc(C(=O)c3cccc(Cl)c3)c(N)c12	2.9	0.3

Of the compounds above, 18 contain a halogen.
item	Structure	BJeLR viab HTS	A1 inh
2	C[C@H]1CN([C@@H](C)CO)C(=O)c2cc(NC(=O)Nc3ccc(F)cc3)ccc2O[C@@H]1CN(C)C(=O)Nc1ccc2c(c1)OCO2	-10.7	-0.2
4	O=C(CCCCC(=O)Nc1c(I)cc(I)c(C(=O)O)c1I)Nc1c(I)cc(I)c(C(=O)O)c1I	2.4	-0.2
6	Cc1ccc(NC(=O)c2cnc3ccc(S(=O)(=O)N(C)C4CCCCC4)cc3c2Cl)cc1F	1.3	1.3
7	C[C@H](CO)N1C[C@H](C)[C@H](CN(C)C(=O)Nc2ccc(C(F)(F)F)cc2)Oc2ccc(NC(=O)CCN3CCOCC3)cc2C1=O	-7.4	0.9
10	C[C@H]1CN([C@@H](C)CO)C(=O)c2cccc(NC(=O)c3ccncc3)c2O[C@@H]1CN(C)S(=O)(=O)c1ccc(Cl)cc1	3.1	.
11	C[C@@H]1CN([C@H](C)CO)C(=O)c2cc(NC(=O)Nc3ccc4c(c3)OCO4)ccc2O[C@H]1CN(C)C(=O)Nc1ccc(C(F)(F)F)cc1	-0.2	0.1
12	N#Cc1c(F)cccc1NCc1cccs1	-6.6	-0.2
22	O=C(COc1ccccc1)Nc1ccc(I)cc1	-4.1	-1.0
29	COc1ccc(S(=O)(=O)N(C)C[C@@H]2Oc3c(NC(=O)Nc4ccc(C(F)(F)F)cc4)cccc3C(=O)N([C@H](C)CO)C[C@@H]2C)cc1	-0.9	.
34	O=C(c1ccc(Cl)cc1)N1CCc2sccc2C1c1ccc(Cl)cc1 (stereo not given)	5.3	-0.2
43	Cc1ccc(Nc2ncc(C(=O)N3CCCCCC3)c3ccccc23)cc1Cl	-0.3	.
45	COc1ccc(N=c2scc(C)n2C(=O)c2ccccc2Cl)cc1	1.5	0.5
47	C[C@@H]1CN([C@@H](C)CO)C(=O)c2cc(NS(=O)(=O)c3ccc(F)cc3)ccc2O[C@H]1CN(C)Cc1ccc(Cl)c(Cl)c1	1.1	0.2
57	CC(C)Cn1c(=O)c2cc3c(=O)n(CC(C)C)c(=O)c3c(C(=O)c3ccc(Cl)cc3)c2c1=O	3.1	-0.1
66	O=C(NCCCN1CCN(Cc2c(F)cccc2Cl)CC1)c1cccc(C(F)(F)F)c1	0.0	.
73	COc1ccc(/C=C2\CCc3ccccc3C2=O)cc1COc1ccc(F)cc1	-1.7	0.6
75	CC1=NN(c2ccccc2)C(=O)C1C(=O)c1ccccc1Br (stereo not given)	6.1	0.2
76	Cc1cc(C(F)(F)F)nc2sc(C(=O)c3cccc(Cl)c3)c(N)c12	2.9	0.3
